ClpP mod: qHTS Assay for Activators of ClpP. AID 651965, 2013. 340,000 tested, 1.9% active. Potency, µM (titrated, usually from 57.5 µM), without a hit: top-dose activity change, negative = active. purified B. subtilis ClpP, FRET peptide cleavage, 20 min; active = well fitted falling curve with a large enough effect; inconclusive = small, poorly fitted or top-dose-only effect; inactive = no such curve, though single readings can be large or run the other way; note: potency is the fitted concentration of half-maximal effect; the source files actives as falling curves though it sought activators and does not explain the sign; nearly all actives have a fitted effect of over 65% in size; many hits overshoot -100%
Target sequence (P80244 whole entry, looked up): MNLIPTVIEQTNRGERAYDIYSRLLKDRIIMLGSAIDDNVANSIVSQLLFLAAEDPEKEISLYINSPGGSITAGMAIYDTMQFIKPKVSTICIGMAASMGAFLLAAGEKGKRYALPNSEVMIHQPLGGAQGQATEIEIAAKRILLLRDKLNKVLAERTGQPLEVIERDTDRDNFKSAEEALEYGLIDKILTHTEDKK
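Buffer: 100 mM Tris/HCl pH8, 100 mM KCl, 0.05% low protease BSA, 2.5% glycerol, 0.01% Tween-20. ClpP 10 microg/mL final; 20 min RT; delta FRET normalized to ADEP and DMSO controls.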
TRPML1 inh: human mucolipin-1 channel inhibition; 390,000 tested, 0.02% active; TRPML1-inducible cells, Ca2+ dye fluorescence, FDSS; active compounds read low; inhibition of EC80 agonist-evoked calcium signal; activity change, negative = inhibition, % (no concentration beside the values); Q9GZU1; in the data active means activity change below about -50%; inconclusive means about -30% to -50%; inactive means above about -30%;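 note: stimulus is agonist 54-4 at its EC80 concentration; % is set by controls: 0 for no effect and ±100 for the full control effect; compound concentration not given in the record; the text of the record puts the active cut at -80%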
Target sequence (Q9GZU1 whole entry, looked up): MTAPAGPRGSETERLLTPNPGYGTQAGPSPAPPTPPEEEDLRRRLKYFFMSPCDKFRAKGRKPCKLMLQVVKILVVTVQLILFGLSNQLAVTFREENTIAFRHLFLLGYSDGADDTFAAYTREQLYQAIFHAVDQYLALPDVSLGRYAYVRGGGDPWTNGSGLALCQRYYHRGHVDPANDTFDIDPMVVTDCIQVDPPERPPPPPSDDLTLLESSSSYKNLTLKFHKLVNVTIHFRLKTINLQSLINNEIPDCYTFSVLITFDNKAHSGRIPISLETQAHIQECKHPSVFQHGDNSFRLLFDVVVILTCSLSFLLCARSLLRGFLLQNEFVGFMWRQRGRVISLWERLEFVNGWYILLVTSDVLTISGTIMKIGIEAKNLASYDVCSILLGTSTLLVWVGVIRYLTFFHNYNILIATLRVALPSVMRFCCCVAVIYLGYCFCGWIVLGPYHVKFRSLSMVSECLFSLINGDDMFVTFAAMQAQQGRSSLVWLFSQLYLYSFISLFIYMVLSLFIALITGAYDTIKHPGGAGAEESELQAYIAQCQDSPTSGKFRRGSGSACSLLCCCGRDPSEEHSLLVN
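Tet-induced TRPML1-DL cells loaded with Ca8 no-wash calcium dye were read kinetically on FDSS. Compound addition was followed by EC80 agonist 54-4 (4 uM final); inhibition was read over 110 s.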
Starred values were filed as active, the others as inactive; ? = inconclusive. Only part of the results is shown (hit frequency here may not be typical).

SMILES	ClpP mod	TRPML1 inh
COc1cccc(CN(C(=O)c2oc3ccccc3c2C)C2CCS(=O)(=O)C2)c1 (stereo not drawn)	-0.8%	10
O=C(/C=C/[C@H]1O[C@@H](n2ccc(=O)[nH]c2=O)[C@H](O)[C@@H]1O)NCc1ccc2c(c1)OCO2	0.1%	5
CCCS(=O)(=O)NC(=O)C1(C)CCCN(C(=O)c2c(C)noc2C)C1 (stereo not drawn)	-2.2%	?
CC1(C(=O)NS(=O)(=O)c2ccc(Cl)cc2)CCN1C(=O)C1CCCCC1 (stereo not drawn)	-3.7%	4
CCOc1ccc(NC(=O)CSC2=Nc3ccccc3C3=NC(CCC(=O)NCc4ccco4)C(=O)N23)cc1 (stereo not drawn)	0.7%	-6
CCc1ccc(OCC(=O)N(Cc2cccs2)c2ccc(Cl)cc2)cc1	1.8%	11
O=C(Nc1c(C(=O)c2ccccc2)oc2ccccc12)c1cc(=O)c2ccccc2o1	-1.7%	3
Cc1cccc(OCCCSc2nc(-c3ccc(C(C)(C)C)cc3)nc3cc(=O)[nH]n23)c1C	2.5%	12
CCc1ccc(OCC(=O)NC(Cc2c[nH]c3ccccc23)C(=O)O)cc1 (stereo not drawn)	0.8%	?
CCOC(=O)c1cc(-c2ccc(OC)cc2)n(CCC(=O)Nc2nc3ccc(OCC)cc3s2)c1C	-2.2%	-8

Some values from the results shown:
`CCc1ccc(OCC(=O)NC(Cc2c[nH]c3ccccc23)C(=O)O)cc1` (stereo not drawn) in ClpP mod is listed with 0.8%
`CCOc1ccc(NC(=O)CSC2=Nc3ccccc3C3=NC(CCC(=O)NCc4ccco4)C(=O)N23)cc1` (stereo not drawn) in TRPML1 inh is listed with -6
`O=C(Nc1c(C(=O)c2ccccc2)oc2ccccc12)c1cc(=O)c2ccccc2o1` in TRPML1 inh is listed with 3

(list continues)
SMILES	ClpP mod	TRPML1 inh
Cc1ccc(CNC(=O)CCS(=O)(=O)c2cc3c4c(c2)CCN4C(=O)CC3)cc1	-1.2%	11
CSc1ccc(C2c3c(oc4cc(C)cc(C)c4c3=O)C(=O)N2Cc2ccco2)cc1 (stereo not drawn)	0.1%	-6
CCOc1cccc2c1N[C@@H](c1ccc(C(=O)O)cc1)[C@H]1CC=C[C@@H]21	-11%	8
CCOC(=O)C1CCC(CN(Cc2ccc(OC)cc2)S(=O)(=O)c2ccc(F)c(C(=O)Nc3ccc(C)c(C)c3)c2)CC1 (stereo not drawn)	0.2%	7
CCOC(=O)c1noc2ncnc(Nc3cccc(OC)c3)c12	-0.1%	3
COc1ccc(CNC(=O)c2ccc(CS(=O)Cc3ccccc3Cl)o2)cc1 (stereo not drawn)	1.6%	-16
Cc1ccc(NC(=O)C(=O)NCC(c2cccnc2)N2CCN(Cc3ccccc3)CC2)cc1 (stereo not drawn)	0.2%	1
CCc1ccc(-n2nc(C)c3c(C)cc(=O)n(CC(=O)Nc4ccc(OC)c(OC)c4)c32)cc1	0.1%	-9
Cc1cccc(NC(=O)CSc2ncc(-c3ccc(Br)cc3)[nH]2)c1	2.3%	-1
COc1cc(OC)c(NS(=O)(=O)c2cc(-c3cnc(C)o3)ccc2OC)cc1Cl	0.0%	18
CC1(C(=O)Nc2ccc3[nH]ncc3c2)CCN1C(=O)CCc1ccccc1 (stereo not drawn)	0.1%	-7
Cc1ccc(CCNC(=O)C(CC(C)C)NS(=O)(=O)c2ccc3c(c2)oc(=O)n3C)cc1 (stereo not drawn)	0.3%	-13
Cc1ccccc1Cn1c(CN2CCC(C(=O)NCc3cccnc3)CC2)cc2ccccc21	0.1%	-5
CC(Oc1ccccc1)C(=O)Nc1nnc2n1CCS2 (stereo not drawn)	-5.5%	-12
CC(NC(=O)c1ccc(Cn2c(=O)c3cccn3c3cccnc32)cc1)c1ccccc1 (stereo not drawn)	18%	18
COc1cccc(-c2nc(S(=O)(=O)c3ccc(Cl)cc3)c(NCc3ccccc3)o2)c1	4.1%	-12
Cc1nn2c(=O)cc(COC(=O)c3ccco3)nc2s1	-1.9%	45
CSc1cccc(NC(=O)C2CCCN(S(=O)(=O)c3ccc4c(c3)CCCN4C(C)=O)C2)c1 (stereo not drawn)	-3.3%	1
Cc1ccc(NC(=O)c2sc3ncnc(N(C)C4CCCCC4)c3c2C)cc1	-22%	4
COc1ccc(-n2cc(-c3ccccc3)c3c(SC(C)C(C)=O)ncnc32)cc1 (stereo not drawn)	?	7
Cc1ccc(Cl)cc1N1CCN(C(=O)c2cc(S(=O)(=O)N3CCCCC3)cn2C)CC1	-2.7%	6
Clc1ccc(CN2CCc3nc(Nc4ccc5c(c4)OCCO5)ncc3C2)cc1	-10%	-14
Cc1noc(C)c1S(=O)(=O)NCCc1csc2nc(-c3ccc(Cl)cc3)nn12	0.4%	-4
Cc1ccc(C)c(CN2C(=O)c3ccccc3S(=O)(=O)c3ccc(C(=O)NCCCN4CCCC(C)C4)cc32)c1 (stereo not drawn)	-0.4%	-6
COc1cc(Cl)c(NS(=O)(=O)c2cc(-c3cc(C)no3)ccc2OC)c(OC)c1	0.6%	38
CCCCC(CC)CNC(=O)C1CCC(CNS(=O)(=O)c2cccc3nsnc23)CC1 (stereo not drawn)	-0.4%	5
O=C(CSc1cn(CCNC(=O)c2c(F)cccc2F)c2ccccc12)Nc1ccccc1F	1.1%	8
COc1cc(O)ccc1C1CC(=O)Nc2c1c(=O)nc(SCc1ccccc1C)n2C (stereo not drawn)	-7.9%	-14
COCc1cc(C)nc2sc(C(=O)Nc3cc(C)ccc3F)c(N)c12	3.2%	-12
CCCC(=O)OCc1cnc(C)c2oc(=O)c(C(=O)Nc3cccc(C(F)(F)F)c3)cc12	-7.1%	-4
CC(C)CN(CCCNC(=O)c1cn(C)c2ccc(S(=O)(=O)N(C)C3CCCCC3)cc2c1=O)CC(C)C	-0.8%	2
CCC(=O)N1CCc2cc(S(=O)(=O)NCCC(=O)Nc3ccc(OC)c(OC)c3)ccc21	-1.1%	18
Cc1cc(C)c2oc(C(=O)Nc3c(C)n(C)n(-c4ccccc4)c3=O)cc(=O)c2c1	-0.4%	6
COc1ccc(-n2nc(C(=O)NCCc3ccc(Cl)cc3)c3c4ccccc4n(C)c3c2=O)cc1Cl	?	6
COc1ccc(Nc2c(-c3ccc(C)o3)nc3ccc(Cl)cn23)cc1	-1.1%	6
Cc1cccc(Cn2c(=O)n(-c3ccccc3C)c(=O)c3c2c2cc(C)ccc2n3C)c1	4.1%	-1
CC1=C(C(=O)Nc2ccc(Cl)cc2)C(c2cccs2)n2nc(SCc3cccc(Cl)c3)nc2N1 (stereo not drawn)	-8.6%	38
O=C(NCCCN1CCN(c2ccccc2)CC1)c1nnc(Cc2ccc(F)cc2)o1	-0.1%	-13
CCC(=O)N1CCc2cc(Br)cc(S(=O)(=O)NCCc3ccccc3Cl)c21	1.3%	25
CC1(C(=O)NCC2CC2)CCN1C(=O)C1(c2ccc(Cl)cc2)CC1 (stereo not drawn)	-0.4%	-3
COc1ccccc1CNS(=O)(=O)c1c(C(=O)N2CCC(C)CC2)c(C)n(C)c1C	-4.0%	-21
COc1ccc(CCNC(=O)CSc2nc3nc(C)c(Cc4ccc(C)cc4)c(C)n3n2)cc1OC	2.4%	-5
COc1ccc(OC)c(NC(=O)Cn2cnc3ccc(S(=O)(=O)N4CCC(C)CC4)cc3c2=O)c1	-6.3%	2
Cc1cc(-c2nc3ncccc3o2)ccc1NC(=O)COc1cc(C)c(Cl)c(C)c1	?	3
COc1ccc(NC(=O)c2cccc(N3CCCS3(=O)=O)c2)cc1	-1.1%	21
Cc1ccc(N2CCn3c2nc2c3c(=O)n(CCCc3ccccc3)c(=O)n2C)cc1	?	28
Cc1ccc(NC(=O)c2ccc(NC(=O)CCS(=O)(=O)c3cccs3)cc2)cc1F	-3.7%	18
CCOc1ccc(N2CC(C)Cn3c2nc2c3c(=O)n(Cc3c(F)cccc3Cl)c(=O)n2C)cc1 (stereo not drawn)	-2.7%	29
COc1ccc(N2CCN(CC(O)COc3ccc(C(C)C)c(C)c3)CC2)cc1 (stereo not drawn)	-1.0%	-22
CCOC(=O)C1(C)CCCN1C(=O)c1ccc(C)cc1 (stereo not drawn)	1.3%	-27

3 entries out of the list, arranged by length of the SMILES, falling:
SMILES	ClpP mod	TRPML1 inh
COc1ccc(OC)c(NC(=O)Cn2cnc3ccc(S(=O)(=O)N4CCC(C)CC4)cc3c2=O)c1	-6.3%	2
Cc1ccc(N2CCn3c2nc2c3c(=O)n(CCCc3ccccc3)c(=O)n2C)cc1	?	28
CCOC(=O)C1(C)CCCN1C(=O)c1ccc(C)cc1 (stereo not drawn)	1.3%	-27

New compounds follow:
SMILES	ClpP mod	TRPML1 inh
Cc1cccc(CC(=O)NC2CC(=O)N(c3cccc(F)c3)C2)c1 (stereo not drawn)	0.8%	-8
COc1cccc(Cn2c(=O)n(-c3ccc(Br)cc3F)c(=O)c3sc4ccccc4c32)c1	4.0%	5
COc1ccc(CNC(=O)CCc2c(C)c3cc4c(C)c(C)oc4cc3oc2=O)cc1OC	?	0
COc1ccccc1CNS(=O)(=O)c1cc(C(=O)Nc2cccc(C(F)(F)F)c2)ccc1F	0.0%	3
CCN(CC)S(=O)(=O)c1ccc2c(c1)N(CC(=O)N1CCN(c3ccccc3F)CC1)C(=O)CO2	0.3%	-9
CCc1ccc(-c2nn(CC(=O)NCc3ccccc3)c3c2cnc2ccc(F)cc23)cc1	-0.6%	-7
O=C(C1COc2ccccc2O1)N(Cc1cccnc1)c1nc2c(F)cccc2s1 (stereo not drawn)	-0.3%	1
Cc1ccc2c(c1)N(C(=O)N1CCC(C(=O)NCCc3ccc(Cl)cc3)CC1)CC(C)O2 (stereo not drawn)	1.6%	5
CCOC(=O)c1ccc(N2C(=O)c3n[nH]c(-c4cccs4)c3C2c2ccc(O)c(OC)c2)cc1 (stereo not drawn)	-0.6%	-4
CCOc1ccc(CNC(=O)c2ccc3c(Cl)c4c(nc3c2)CCCC4)cc1	-14%	4
COc1cccc(NC(=O)CSc2nc3c([nH]c4ccccc43)c(=O)n2-c2cc(C)cc(C)c2)c1	-17%	-25
Cc1sc2ncn(CC(=O)Nc3cccc(C(F)(F)F)c3)c(=O)c2c1S(=O)(=O)N1CCN(C)CC1	1.8%	-7
CCOC(=O)N1CCc2c(sc3c2c(=O)n(-c2ccc(F)cc2)c(=O)n3CC(=O)c2ccccc2)C1	0.4%	31
Cc1ccc(C(=O)c2oc3ccccc3c2NC(=O)Cc2coc3ccc(C)cc23)cc1	?	-6
O=C(O)c1ccc(CNCc2ccccc2Cl)s1	-9.3%	-21
O=C(Nc1ccc(C(=O)OCc2cc(=O)n3nc(C4CC4)sc3n2)cc1)c1cccc(Cl)c1	-17%	24
COc1ccc(C2=C(C)C(=O)N(Cc3ccc(C(=O)Nc4ccc(F)cc4C)cc3)S2(=O)=O)cc1	4.2%	-21
CCOc1ccc(-c2nc(SC(C(C)=O)C(=O)N(C)C)c3c(=O)n(C)c(=O)n(C)c3n2)cc1 (stereo not drawn)	-8.2%	-13
Cc1ccc2cccc(NC(=O)COc3ccccc3[N+](=O)[O-])c2n1	2.3%	15
Cc1ccccc1C(=O)OCc1cc(=O)n2nc(C3CC3)sc2n1	-2.7%	1
CCC(=O)N1CCc2cc(Br)cc(S(=O)(=O)N3CCCC(C(=O)NCc4ccc(OC)cc4)C3)c21 (stereo not drawn)	-0.5%	1
COc1cc(C2CC(=O)Nc3c2c(=O)[nH]c2nc4ccccc4n32)ccc1O (stereo not drawn)	-27%	-3
Fc1ccccc1CNCCCSc1nnnn1-c1ccccc1	3.1%	7
CCCCCn1c(NCc2ccccc2OC)nc2ccccc21	-11%	63
CCCCNc1ncnc2c1nnn2C	-5.0%	3
O=C(NC1CCCC1)c1ccc2c(=O)n(Cc3ccccc3)c(SCc3cccc(F)c3)nc2c1	-6.3%	19
COCCCNC(=O)c1cccc2c(-c3ccc(OC)cc3C)coc12	-0.4%	49
Cc1noc2ncnc(N3CCCC(C(=O)NCCC(C)C)C3)c12 (stereo not drawn)	-0.1%	-12
Cc1cc(C)n(CCNC(=O)[C@H]2O[C@@H](n3cnc4c(N)ncnc43)[C@H](O)[C@@H]2O)n1	-1.5%	-10
Cc1ccc(Cn2c(=O)n(CCCCC(=O)NCc3ccc4c(c3)OCO4)c(=O)c3ccccc32)cc1	-6.0%	-15
CC(=O)c1cccc(-c2ccnc3c2CC(C(=O)NCc2ccco2)O3)c1 (stereo not drawn)	-1.1%	5
CCOC(=O)C1CCN(S(=O)(=O)c2cc(-c3cc(C)no3)ccc2C)CC1	0.7%	-4

Random excerpt: 4 entries already listed
SMILES	ClpP mod	TRPML1 inh
COc1cc(C2CC(=O)Nc3c2c(=O)[nH]c2nc4ccccc4n32)ccc1O (stereo not drawn)	-27%	-3
CCCCCn1c(NCc2ccccc2OC)nc2ccccc21	-11%	63
Fc1ccccc1CNCCCSc1nnnn1-c1ccccc1	3.1%	7
Cc1ccc(Cn2c(=O)n(CCCCC(=O)NCc3ccc4c(c3)OCO4)c(=O)c3ccccc32)cc1	-6.0%	-15

Bioassay records as filed in PubChem BioAssay.
